Bioassay records from PubChem.
AF4-AF9 inh – inhibitors of AF4 peptide binding to AF9, primary screen, biochemical, AlphaScreen, biotin-AF4 peptide, FLAG-AF9, single point | Protein AF-9 (Homo sapiens), P42568 | inhibition, % at 10 µM | 350,000 compounds, 0.47% hits | AID 651704, 2012;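 active = every replicate reaching a set inhibition limit, whatever the replicate mean, cut at about 25% in these data; inconclusive = mean inhibition reaches that limit but some replicates miss it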;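 note: 0% = plate neutral control median and 100% = total signal loss; the record names both 10 and 1 µM as test concentration; the first replicate is given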
Target sequence (P42568 whole entry, looked up): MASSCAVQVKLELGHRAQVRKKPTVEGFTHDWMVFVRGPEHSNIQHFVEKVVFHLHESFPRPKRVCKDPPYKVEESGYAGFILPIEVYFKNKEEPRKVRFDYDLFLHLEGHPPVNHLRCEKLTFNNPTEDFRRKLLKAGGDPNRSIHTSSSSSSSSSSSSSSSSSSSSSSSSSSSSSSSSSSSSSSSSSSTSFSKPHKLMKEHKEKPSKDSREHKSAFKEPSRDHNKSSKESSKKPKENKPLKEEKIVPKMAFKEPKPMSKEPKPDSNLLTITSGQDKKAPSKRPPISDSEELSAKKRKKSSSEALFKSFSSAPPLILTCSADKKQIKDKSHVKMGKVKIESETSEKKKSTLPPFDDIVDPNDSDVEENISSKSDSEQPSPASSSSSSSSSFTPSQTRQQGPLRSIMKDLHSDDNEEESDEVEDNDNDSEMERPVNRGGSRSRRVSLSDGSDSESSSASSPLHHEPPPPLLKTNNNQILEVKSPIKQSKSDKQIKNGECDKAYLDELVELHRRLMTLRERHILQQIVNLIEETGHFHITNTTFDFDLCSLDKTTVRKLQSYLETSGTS
ALR inh – inhibitors of human ALR sulfhydryl oxidase, primary screen, biochemical, H2O2 detection, HRP-luminol luminescence, single point; inhibition, % (no concentration beside the values); 290,000 compounds, 3.8% hits; purified ALR, DTT oxidation; FAD-linked sulfhydryl oxidase ALR (Homo sapiens), P55789;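 active = mean and each replicate at 75% or more; inconclusive = only one of the two met; inactive = neither met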;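 note: stock transfer was 7.5 nL into about 7.5 µL; 0% = neutral wells and 100% = wells with inactivated enzyme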
Target sequence (P55789 whole entry, looked up): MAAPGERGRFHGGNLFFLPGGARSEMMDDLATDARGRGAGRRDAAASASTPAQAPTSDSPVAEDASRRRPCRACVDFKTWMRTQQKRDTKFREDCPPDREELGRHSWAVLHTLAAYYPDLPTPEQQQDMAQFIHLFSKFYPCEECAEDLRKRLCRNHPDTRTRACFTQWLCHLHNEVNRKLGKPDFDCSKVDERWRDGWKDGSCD
Vif A3G – inhibitors of Vif binding to APOBEC3G peptide, primary screen, biochemical, TR-FRET, GST-Vif 1-94, biotin-A3G peptide, dose response retest (AID 1117319) | TR-FRET GST-Vif / biotin-A3G peptide binding; higher % means a stronger effect; test concentration not given here; strong numbers were not always called active | inhibition, %; hits with a dose series show IC50 in µM | 260,000 compounds, 0.57% hits;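 active = above the screen mean plus three standard deviations and confirmed in dose response; inconclusive = results disagree or hit not tested in dose response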;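 note: Vif residues 1-94 fused to GST binding biotinylated APOBEC3G peptide 110-148; 0% = full assay without inhibitor and 100% = GST in place of GST-Vif; retest series ran down from 100 µM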
HNF4A DNA FP – change in binding of human HNF4A to DNA, primary screen, biochemical, fluorescence polarization, FITC-DNA | Hepatocyte nuclear factor 4-alpha (Homo sapiens), P41235 | 1 h | activity change, % at 10 µM | 360,000 compounds, 0.3% hits | AID 1224865, 2016; in the data active = activity change above about 30%, passing the limit was not always enough;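 note: controls were the assay level and a saturating level of protein; the project sought stronger binding though the title names inhibitors; some compounds called inactive have numbers as strong as hits; positive values seem to mean higher polarization but the record does not say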
FGF22 binding – binders of human FGF22 protein, primary screen, FGF22 synaptogenesis inhibitor project, biophysical, thermal shift, single point; AID 651658, 2012; Fibroblast growth factor 22 (Homo sapiens), Q9HCT0; recombinant FGF22 thermal shift, SYPRO orange fluorescence; percent of sucrose octasulfate shift, DMSO zero; 340,000 compounds, 1.5% hits; calls only at 9.99 µM;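 active = melting point raised past a set limit in the mean and every replicate; inconclusive = no clear call; three in four hits are not shown here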
Target sequence (Q9HCT0 whole entry, looked up): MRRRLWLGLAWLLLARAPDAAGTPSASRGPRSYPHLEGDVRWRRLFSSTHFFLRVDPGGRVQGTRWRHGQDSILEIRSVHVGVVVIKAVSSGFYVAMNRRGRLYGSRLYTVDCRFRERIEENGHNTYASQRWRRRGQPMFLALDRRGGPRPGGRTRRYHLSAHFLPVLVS
Ecoli growth – E. coli growth inhibition, primary screen, OD600; Escherichia coli growth, 23 h; active compounds read low; OD600 absorbance (test concentration not listed); 330,000 compounds, 0.21% hits; AID 1053175, 2014;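 active = OD600 absorbance below the run mean of sample wells minus 3.6 SD, in any replicate, cut at about 0.56 in these data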;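 note: stock transfer was 300 nL into about 60 µL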
Ecoli rRNA inh – reduced GFP signal of wild-type E. coli, primary screen, bacterial rRNA inhibitor project, GFP/RFP fluorescence, OD600, single point. 350,000 compounds, 1.6% hits. AID 720706, 2013. E. coli WT GFP vs humanized-ribosome RFP mutants, 24 h; active compounds read low; DMSO median 0, no signal -100. GFP signal change (wild-type ribosome), % (no concentration beside the values);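 active = significant combined selectivity score with lowered wild-type GFP, culture density cut under 30%, mutant RFP and density less affected; inactive = any of these conditions unmet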; note: one replicate is shown; some compounds called inactive have numbers as strong as hits
Ecoli rRNA inh OD600 – second read-out of Ecoli rRNA inh, no call of its own (marks repeat the call); OD600 change, %; measured here: OD600 growth;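 optical density of the mix in the first replicate; 0 = DMSO median and -100 = no signal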
Ecoli rRNA inh RFP – further read-out of Ecoli rRNA inh, marked with its call; RFP signal change, %; measured here: RFP humanized mutant strains;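 first replicate; 0 = DMSO median and -100 = no signal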
Starred values were filed as active, the others as inactive. The list is partial; rates above refer to the full screens.

What do the screens show for `N#Cc1ccccc1OCC(=O)Nc1c(C(=O)C2CC2)oc2ccccc12`?
ALR inh: 90*; Vif A3G: 19%; HNF4A DNA FP: 17; Ecoli growth: 0.76

How did COc1ccc(/C=N/NC(=O)c2ccc(Cl)cc2)cc1Cn1cc(Cl)cn1 do in these assays?
AF4-AF9 inh: -5.8; ALR inh: 25; Vif A3G: 1%; HNF4A DNA FP: -4.2; FGF22 binding: inactive

How did N#C/C(=C\c1c(N2CCOCC2)nc2ccccn2c1=O)S(=O)(=O)c1ccccc1 do in these assays?
ALR inh: 2; Vif A3G: 6%; HNF4A DNA FP: 4.5; Ecoli growth: 0.63

Results for COc1ccc([C@H]2N[C@]3(CCCN(Cc4cccn4C)C3=O)[C@H]3C(=O)N(C)C(=O)[C@@H]23)cc1 ?
AF4-AF9 inh: 1.3; Vif A3G: 3%; HNF4A DNA FP: 2.6; FGF22 binding: inactive; Ecoli rRNA inh: -4; Ecoli rRNA inh OD600: 7; Ecoli rRNA inh RFP: 3.3

How did C[C@@H]1CN([C@@H](C)CO)C(=O)c2cc(NC(=O)NC3CCCCC3)ccc2O[C@@H]1CN(C)Cc1ccncc1 do in these assays?
AF4-AF9 inh: -0.8; FGF22 binding: inactive; Ecoli rRNA inh: -2; Ecoli rRNA inh OD600: -9; Ecoli rRNA inh RFP: -2.4

Results for CCCC#Cc1cnc2c(c1)C(=O)N([C@@H](C)CO)C[C@H](C)[C@@H](CN(C)C(=O)CCN1CCCCC1)O2 ?
AF4-AF9 inh: -0.2; FGF22 binding: inactive; Ecoli rRNA inh: 5; Ecoli rRNA inh OD600: 7; Ecoli rRNA inh RFP: -0.9

Results for O=C(OCc1c(F)cccc1Cl)c1cnc(Cl)c(Cl)c1 ?
AF4-AF9 inh: -2.3; ALR inh: -6; HNF4A DNA FP: -0.4; FGF22 binding: inactive; Ecoli growth: 0.72; Ecoli rRNA inh: 4; Ecoli rRNA inh OD600: 2; Ecoli rRNA inh RFP: -2.8

Results for C/C(=C\c1ccco1)C1C(C#N)=C(N)Oc2n[nH]c(-c3ccc(C)cc3)c21 (stereo not drawn) ?
AF4-AF9 inh: -13; ALR inh: -9; Vif A3G: 4%; HNF4A DNA FP: 3.6; FGF22 binding: inactive; Ecoli growth: 0.7; Ecoli rRNA inh: -28*; Ecoli rRNA inh OD600: -14*; Ecoli rRNA inh RFP: 1.1*

What do the screens show for `CC(C)c1c(C(=O)N/N=C2\CCc3ccccc32)nnn1-c1nonc1N`?
AF4-AF9 inh: -0.4; ALR inh: 4; HNF4A DNA FP: 1.5; FGF22 binding: inactive; Ecoli rRNA inh: 3; Ecoli rRNA inh OD600: 5; Ecoli rRNA inh RFP: -1.4

How did CC(C)c1nnc(NC(=O)CSc2nnc(-c3ccco3)o2)s1 do in these assays?
AF4-AF9 inh: -2.0; ALR inh: -5; Vif A3G: -4%; HNF4A DNA FP: 0.1; FGF22 binding: inactive; Ecoli growth: 0.69; Ecoli rRNA inh: 1; Ecoli rRNA inh OD600: 10; Ecoli rRNA inh RFP: 2.1

Results for CN(CC(=O)Nc1cccc(F)c1)C(=O)c1csc2c1CCCC2 ?
AF4-AF9 inh: -18; ALR inh: -9; Vif A3G: -6%; HNF4A DNA FP: 3.1; FGF22 binding: inactive; Ecoli growth: 0.69; Ecoli rRNA inh: -7; Ecoli rRNA inh OD600: -8; Ecoli rRNA inh RFP: 3.0

Results for O=S(=O)(c1ccc(-n2cnnn2)cc1)N1CCN(c2ccccc2F)CC1 ?
AF4-AF9 inh: -3.2; ALR inh: -10; HNF4A DNA FP: -0.6; FGF22 binding: inactive; Ecoli growth: 0.67; Ecoli rRNA inh: 28; Ecoli rRNA inh OD600: 23; Ecoli rRNA inh RFP: 2.4

Results for CN(C(=O)c1cccc(NC(=O)Cc2ccc(NC(=O)C3CCN(C(=O)c4ccccc4)CC3)cc2)c1)C1CCC1 ?
AF4-AF9 inh: 7.7; Vif A3G: -6%; HNF4A DNA FP: -0.9; Ecoli growth: 0.7; Ecoli rRNA inh: 7; Ecoli rRNA inh OD600: -5; Ecoli rRNA inh RFP: 0.4

What do the screens show for `CO[C@@H]1CN(C)C(=O)c2ccc(NC(=O)c3nc4ccccc4s3)cc2OC[C@H](C)NC[C@H]1C`?
AF4-AF9 inh: -1.8; FGF22 binding: inactive; Ecoli rRNA inh: -7; Ecoli rRNA inh OD600: -12; Ecoli rRNA inh RFP: 2.4

Results for CCC(=O)N(C)C[C@H]1Oc2ncc(-c3ccc(C#N)cc3)cc2C(=O)N([C@@H](C)CO)C[C@H]1C ?
AF4-AF9 inh: -1.6; FGF22 binding: inactive; Ecoli rRNA inh: 2; Ecoli rRNA inh OD600: 6; Ecoli rRNA inh RFP: 0.1

Reprinted from the part before: 4 compounds, followed by the next part.
Results for O=S(=O)(c1ccc(-n2cnnn2)cc1)N1CCN(c2ccccc2F)CC1 ?
AF4-AF9 inh: -3.2; ALR inh: -10; HNF4A DNA FP: -0.6; FGF22 binding: inactive; Ecoli growth: 0.67; Ecoli rRNA inh: 28; Ecoli rRNA inh OD600: 23; Ecoli rRNA inh RFP: 2.4

Results for CN(C(=O)c1cccc(NC(=O)Cc2ccc(NC(=O)C3CCN(C(=O)c4ccccc4)CC3)cc2)c1)C1CCC1 ?
AF4-AF9 inh: 7.7; Vif A3G: -6%; HNF4A DNA FP: -0.9; Ecoli growth: 0.7; Ecoli rRNA inh: 7; Ecoli rRNA inh OD600: -5; Ecoli rRNA inh RFP: 0.4

What do the screens show for `CO[C@@H]1CN(C)C(=O)c2ccc(NC(=O)c3nc4ccccc4s3)cc2OC[C@H](C)NC[C@H]1C`?
AF4-AF9 inh: -1.8; FGF22 binding: inactive; Ecoli rRNA inh: -7; Ecoli rRNA inh OD600: -12; Ecoli rRNA inh RFP: 2.4

Results for CCC(=O)N(C)C[C@H]1Oc2ncc(-c3ccc(C#N)cc3)cc2C(=O)N([C@@H](C)CO)C[C@H]1C ?
AF4-AF9 inh: -1.6; FGF22 binding: inactive; Ecoli rRNA inh: 2; Ecoli rRNA inh OD600: 6; Ecoli rRNA inh RFP: 0.1

Results for Cc1cc(=O)oc2cc(OCC(=O)NCCc3c[nH]c4ccc(F)cc34)ccc12 ?
AF4-AF9 inh: -5.6; ALR inh: -3; HNF4A DNA FP: 3.1; FGF22 binding: inactive; Ecoli growth: 0.72; Ecoli rRNA inh: 12; Ecoli rRNA inh OD600: 15; Ecoli rRNA inh RFP: 1.7

Results for Cc1noc(C)c1S(=O)(=O)N(C)C[C@@H]1Oc2ccc(NS(=O)(=O)c3ccccc3)cc2CC(=O)N([C@@H](C)CO)C[C@H]1C ?
AF4-AF9 inh: 9.1; FGF22 binding: inactive; Ecoli rRNA inh: -1; Ecoli rRNA inh OD600: 0; Ecoli rRNA inh RFP: 0.2

What do the screens show for `CCOC(=O)N1CCN(C(=O)CSC2=NS(=O)(=O)c3cc(F)ccc3N2)CC1`?
AF4-AF9 inh: 1.3; ALR inh: 5; Vif A3G: 1%; HNF4A DNA FP: -2.8; FGF22 binding: inactive; Ecoli growth: 0.67; Ecoli rRNA inh: 3; Ecoli rRNA inh OD600: 7; Ecoli rRNA inh RFP: -0.9

How did CN(C(=O)COC(=O)c1cccs1)c1ccccc1 do in these assays?
AF4-AF9 inh: -3.9; HNF4A DNA FP: -7.9; FGF22 binding: inactive; Ecoli rRNA inh: 13; Ecoli rRNA inh OD600: 20; Ecoli rRNA inh RFP: 1.3

What do the screens show for `CCN(C(=O)CN1C(=O)S/C(=C\c2ccccc2OC)C1=O)C1CCS(=O)(=O)C1` (stereo not drawn)?
AF4-AF9 inh: 6.0; ALR inh: 1; Vif A3G: 3%; HNF4A DNA FP: 0.8; FGF22 binding: inactive; Ecoli growth: 0.66; Ecoli rRNA inh: 3; Ecoli rRNA inh OD600: -12; Ecoli rRNA inh RFP: 1.2

How did COc1ccc(NC(=O)c2ccccc2)cc1NS(=O)(=O)c1ccc(F)cc1 do in these assays?
Vif A3G: -1%; HNF4A DNA FP: 4.6; Ecoli growth: 0.7

What do the screens show for `CCC(=O)Nc1cccc(NC(=O)CSc2nnnn2C2CCCC2)c1`?
ALR inh: -6; Vif A3G: 28%; HNF4A DNA FP: 4.5; Ecoli growth: 0.64

Results for CCOC(=O)Nc1ccc(C(=O)/C=C/c2ccccc2)cc1 ?
AF4-AF9 inh: 5.4; ALR inh: 5; Vif A3G: 1%; HNF4A DNA FP: -0.3; FGF22 binding: inactive; Ecoli growth: 0.72; Ecoli rRNA inh: -26*; Ecoli rRNA inh OD600: -1.3*; Ecoli rRNA inh RFP: 10*

Results for CCNC(=O)NC(=O)C(C)Oc1ccc(C(=O)OC)cc1 (stereo not drawn) ?
ALR inh: -2; Vif A3G: 3%; HNF4A DNA FP: -2.0; Ecoli growth: 0.77

Results for CN(Cc1ccccc1)C(=O)CCC1CCN(C(=O)CC2=CCCCC2)CC1 ?
AF4-AF9 inh: -1.0; HNF4A DNA FP: -3.9; FGF22 binding: inactive; Ecoli rRNA inh: -8; Ecoli rRNA inh OD600: -8; Ecoli rRNA inh RFP: 0.8

How did CCOC(=O)c1c(C)[nH]c(C(=O)OC(C)C(=O)Nc2ccc(C)cc2)c1C (stereo not drawn) do in these assays?
AF4-AF9 inh: -4.4; Vif A3G: -2%; HNF4A DNA FP: 5.0; FGF22 binding: inactive; Ecoli rRNA inh: 2; Ecoli rRNA inh OD600: 11; Ecoli rRNA inh RFP: -1.2

How did Cc1cc(NC(=O)CSc2nc3ccccc3n2CC(C)C)no1 do in these assays?
AF4-AF9 inh: -0.9; ALR inh: -6; Vif A3G: -2%; HNF4A DNA FP: 3.0; FGF22 binding: inactive; Ecoli rRNA inh: -10; Ecoli rRNA inh OD600: -6; Ecoli rRNA inh RFP: 1.0

Results for CCOC(=O)c1sc(NC(=O)C2C3C=CC(C3)C2C(=O)O)nc1C (stereo not drawn) ?
AF4-AF9 inh: 7.0; ALR inh: 2; Vif A3G: inconclusive; HNF4A DNA FP: -0.9; FGF22 binding: inactive; Ecoli growth: 0.7; Ecoli rRNA inh: 9; Ecoli rRNA inh OD600: 3; Ecoli rRNA inh RFP: -5.2

How did CC(C)c1ccc(C(=O)NN2CCOCC2)cc1 do in these assays?
AF4-AF9 inh: -3.6; ALR inh: 3; Vif A3G: -5%; HNF4A DNA FP: -0.5; FGF22 binding: inactive; Ecoli growth: 0.71; Ecoli rRNA inh: 3; Ecoli rRNA inh OD600: 12; Ecoli rRNA inh RFP: 2.8

How did CN(C)C(CNc1ccc(C(N)=O)cc1[N+](=O)[O-])c1ccccc1 (stereo not drawn) do in these assays?
AF4-AF9 inh: 2.9; Vif A3G: 2%; HNF4A DNA FP: 4.4; FGF22 binding: inactive; Ecoli growth: 0.67; Ecoli rRNA inh: 3; Ecoli rRNA inh OD600: -5; Ecoli rRNA inh RFP: -3.0

Results for O=C(COC(=O)c1ccc([N+](=O)[O-])s1)Nc1ccccc1 ?
Vif A3G: -8%; HNF4A DNA FP: -0.4; Ecoli growth: 0.65

How did COc1cc(C)c(Cl)c(C)c1S(=O)(=O)NCc1ccc2c(c1)OCO2 do in these assays?
ALR inh: 2; Vif A3G: -1%; HNF4A DNA FP: -3.3; Ecoli growth: 0.66
